# Assay outcomes: PubChem, Center for Chemical Genomics, University of Michigan
# CDC25B-CDK2 inh – human CDC25B-CDK2/CyclinA binding inhibition | z-score (no concentration beside the values) | P30305+P24941 | AID 1259370 | 94,000 compounds, 0.72% hits | HTRF CDC25B-CDK2/CyclinA binding, anti-His/anti-Flag; hits give high values;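 also: score is relative to mean and SD of negative controls; strong numbers were not always called active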
# HIV TAR-Tat – HIV-1 TAR-Tat binding disruption | HIV-1 TAR RNA, Tat peptide displacement FRET; hits give high values | z-score (concentration not given with the values) | 100,000 compounds, 0.6% hits | AID 1259389;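 also: score is relative to mean and SD of negative controls; some compounds called inactive have numbers as strong as hits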
# * hit, by the source's call; nt = not tested or not shown.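 The calls were made as follows: active = z-score from 3 up in half or more of its runs; inactive = the rest.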
SMILES,CDC25B-CDK2 inh,HIV TAR-Tat
CCC(=O)Nc1nc(C)cc(SCC(=O)OC)n1,-1.9,0.37
Cc1csc(NS(=O)(=O)c2ccc(Cl)cc2)c1-c1nc2ccccc2s1,-1.1,nt
COc1ccccc1N1CCN(c2csc3ccc(Cl)cc3c2=O)CC1,nt,-2.7
C=CCSc1ncc(Cl)c(C(=O)Nc2cc(OC)ccc2OC)n1,-0.28,0.94
O=C(O)c1ccccc1-c1ccccc1C(=O)O,-0.84,nt
CN(c1ncnc2onc(-c3cccc(Cl)c3)c12)C1CCCCC1,0.87,0.76
COc1ccc2c(c1)C=C(C(=O)Nc1ccc(OC)cc1OC)C=CO2,-1.7,-0.08
Cc1cc(C)cc(NS(=O)(=O)c2cc(/C=C/c3onc(C)c3[N+](=O)[O-])ccc2C)c1,nt,1.1
O=C(NCc1ccco1)c1c(NC(=O)c2nn(-c3ccccc3)ccc2=O)sc2c1CCC2,-0.22,-0.11
Fc1cc(F)cc(-c2noc3ncnc(N4CCN(Cc5ccccc5)CC4)c23)c1,nt,0.65
CCCc1cc(C2CCCN2S(=O)(=O)c2ccc3c(c2)n(C)c(=O)c(=O)n3C)no1 (stereo not drawn),nt,0.65
N/C(CC1CC1(Cl)Cl)=N\OC(=O)c1ccccc1Cl (stereo not drawn),-2.7,nt
O=C(Nc1cccc(F)c1)C1COc2ccccc2C1 (stereo not drawn),nt,1.6
CCOC(=O)N1CCCN=C1SC,-1.3,nt
Fc1cc(CN2CCc3nc(N4CCCC4)ncc3C2)ccc1Cl,nt,2.1
Brc1ccc(CNCCSc2nnnn2-c2ccccc2)cc1,-1.3,-0.47
Cn1c(C(=O)N2CCCC(C(=O)NCCCc3ccccc3)C2)cc2sccc21 (stereo not drawn),-1.2,nt
CN1C2=NCCN2C(=O)c2cc(Cl)ccc21,-1.3,nt
C=CCN1C(C(=O)c2ccccc2)=C(OC(=O)c2ccc(OC)cc2)c2ccccc2S1(=O)=O,-2.1,nt
O=C(CSc1nnc(Cn2c(=O)sc3ccccc32)n1-c1cccc(Cl)c1)N1CCCC1,-0.89,nt
COc1cc(OC)c(NS(=O)(=O)c2ccc(-c3ccc(=O)[nH]n3)o2)cc1Cl,nt,2.4
CC(=O)N1CCOc2ccc(S(=O)(=O)NC3CCC(C)CC3)cc21 (stereo not drawn),-1.1,1
C/C(=C/C(=O)NN(C)C)C(=O)O,-4,nt
Cc1ccc(S(=O)(=O)c2cc3c(cc2N)n(C)c(=O)n3C)cc1,nt,0.93
O=C(O)Cn1cnc(-c2ccc(Br)cc2)c1,-0.66,1.4
Cc1ccccc1-c1nc2scc(CCNS(=O)(=O)c3ccc4ccccc4c3)n2n1,nt,-0.05
CCn1c(C(=O)NCCc2ccc(S(N)(=O)=O)cc2)cc2sc(Cl)cc21,-3,nt
Cc1nc2scc(C)n2c(=O)c1S(=O)(=O)N(C)C1CCCCC1,-0.44,0.42
Cc1nc2sccn2c(=O)c1NC(=O)c1ccc(F)cc1,nt,1.8
Cc1ncc(-c2ccc(C)c(S(=O)(=O)N3CCN(c4ccc(F)cc4)CC3)c2)o1,nt,1.2

# A section from further up, for reference:
SMILES,CDC25B-CDK2 inh,HIV TAR-Tat
O=C(O)Cn1cnc(-c2ccc(Br)cc2)c1,-0.66,1.4
Cc1ccccc1-c1nc2scc(CCNS(=O)(=O)c3ccc4ccccc4c3)n2n1,nt,-0.05
CCn1c(C(=O)NCCc2ccc(S(N)(=O)=O)cc2)cc2sc(Cl)cc21,-3,nt
Cc1nc2scc(C)n2c(=O)c1S(=O)(=O)N(C)C1CCCCC1,-0.44,0.42
Cc1nc2sccn2c(=O)c1NC(=O)c1ccc(F)cc1,nt,1.8
Cc1ncc(-c2ccc(C)c(S(=O)(=O)N3CCN(c4ccc(F)cc4)CC3)c2)o1,nt,1.2

# Record cards, as listed above:
# Entry for C/C(=C/C(=O)NN(C)C)C(=O)O = CDC25B-CDK2 inh = -4; HIV TAR-Tat = nt
# Entry for O=C(CSc1nnc(Cn2c(=O)sc3ccccc32)n1-c1cccc(Cl)c1)N1CCCC1 = CDC25B-CDK2 inh = -0.89; HIV TAR-Tat = nt
# Entry for C=CCN1C(C(=O)c2ccccc2)=C(OC(=O)c2ccc(OC)cc2)c2ccccc2S1(=O)=O = CDC25B-CDK2 inh = -2.1; HIV TAR-Tat = nt

# (next part)
SMILES,CDC25B-CDK2 inh,HIV TAR-Tat
Cc1ccc(CNS(=O)(=O)c2ccc(CCN3C(=O)c4cccnc4C3=O)cc2)o1,nt,0.2
CCSc1nnc(NC(=O)c2nn(-c3ccc(Cl)cc3)ccc2=O)s1,-0.02,-0.68
Cn1c(CSC2=NCCN2)nc2ccccc21,-1.5,-2.6
Cc1c(Cl)cccc1N1CC(O)=C(c2nc3ccccc3[nH]2)C1=N,-0.15,1
NC(Sc1nc(=O)n(C2CCCC2)c2c1CCC2)c1cccc2ccccc12 (stereo not drawn),-0.92,1.5
COc1ccc2ncc(S(=O)(=O)c3ccc(Cl)cc3)c(N3CCCCC3)c2c1,-3,1.3
C=CCN(Cc1nc(-c2ccc(OC)cc2)no1)S(=O)(=O)c1ccc(F)cc1,-2.2,0.23
COc1ccccc1/C=C/c1nc(C#N)c(NCc2ccc(F)cc2)o1,0.64,0.44
O=S(=O)(Nc1ccc(Cl)cc1)c1ccc(N2CCCCS2(=O)=O)cc1,nt,1.2
COc1ccc(NS(=O)(=O)c2c(C)nc3sc4ccccc4n3c2=O)cc1Cl,-0.96,-0.49
O=C(CSc1nc2[nH]ncc2c(=O)n1-c1ccccc1)N1CCCc2ccccc21,1.5,nt
O=C(Cn1c2ccccc2n2nc(-c3ccccc3)nc12)c1ccccc1,-0.21,1.1
CC(=O)NC(c1cccs1)c1ccc2cccnc2c1O (stereo not drawn),-0.34,nt
O=C1CN(C(=O)c2ccc3c(c2)OCO3)C(c2ccccc2)c2cc(Br)ccc2N1 (stereo not drawn),0.08,nt
CC1CCN(S(=O)(=O)c2ccc3c(c2)N(CC(=O)N2CCCCC2)C(=O)CS3)CC1,-0.45,-0.28
CCOCCOc1nc2c(c(=O)n(C)c(=O)n2C)n1C(C)c1ccccc1 (stereo not drawn),1.3,0.37
CCCN1CCN(c2cc(NCC(C)C)c3c4c(onc24)-c2ccccc2C3=O)CC1,-0.6,-3.6
O=C(NCc1ccncc1)C12CC3CC(C1)CC(c1ccc(Cl)cc1)(C3)C2,nt,1.1
O=C(O)c1c(-c2ccccc2)c2oc3ccccc3c2[nH]c1=O,-0.66,1.7
CCc1cc2c(cc3c(=O)n(CC(=O)NCCCOC)nc(CC)n32)s1,-1.5,0.5
COc1ccc(-c2cc(C)no2)cc1S(=O)(=O)NCCc1ccc(SC)cc1,nt,1.1
CCN1C(=O)c2ccccc2Sc2ccc(NC(=O)N3CCCc4ccccc43)cc21,-0.16,-0.42
Cn1c(SCC(=O)c2ccc(F)cc2)nnc1-c1ccccc1Br,-2.6,2.3
O=S1(=O)N=C(SCc2c(F)cccc2Cl)Nc2ccccc21,nt,0.84
COc1ccc(C)cc1Nc1nc2ccc(C)cc2n2nnnc12,nt,-0.26
O=C(c1cc2ccccc2c(=O)s1)N1CCC(Cc2ccccc2)CC1,0.08,0.04
Cc1nn(-c2ccccc2)c2sc(C(=O)Nc3cccc(Br)c3)cc12,0.05,0.63
CC1=C(C(=O)OC(C)C)C(c2ccccc2C)C2=C(CC(C)(C)CC2=O)N1 (stereo not drawn),-1.6,1.5
C=C(C)[C@@H]1CC[C@]2(C(=O)O)CC[C@]3(C)[C@H](CC[C@@H]4[C@@]5(C)CC[C@H](O)C(C)(C)[C@@H]5CC[C@]43C)[C@@H]12,nt,3.9
COC(=O)CNC(=O)N1CCCC1c1cccs1 (stereo not drawn),-3.1,0.15
Cc1cc(NCCN2CCOCC2)n2c(nc3ccccc32)c1C#N,1.1,nt
c1ccc2c(c1)COC(CN1CCCCC1)OC2,1.7,nt
CCc1nnc(NC(=O)c2c(O)c3c([nH]c2=O)CCCC3)s1,-0.62,nt
Cc1oc(S(=O)(=O)N2CCCC2)cc1C(=O)NCc1ccc2c(c1)OCO2,-1.9,nt
O=C1C(c2ccc(Cl)cc2)N(Cc2ccc3c(c2)OCO3)C(=O)CN1C1CCCCC1 (stereo not drawn),-2.5,nt
Cc1nc(CNC(=O)[C@H]2CSCN2C(=O)Nc2ccc3c(c2)OCCO3)cs1,nt,1.6
O=c1c2cc3c(cc2nc2sc(Nc4ccccc4)nn12)OCO3,-1.5,-0.35
CCCCCOC(=O)c1[nH]c2c(c1C)C(=O)CC(c1cc(OC)c(OC)c(OC)c1)C2 (stereo not drawn),-0.31,nt
O=C1c2ccccc2-c2onc3c(N4CCN(CCO)CC4)cc(N4CCCCC4)c1c23,0.03,-1.8
O=C(c1cc(C(F)(F)F)cc(C(F)(F)F)c1)N1CCC(O)(c2ccc(Cl)cc2)CC1,-1.6,nt
COc1cccc(-c2noc(NCc3ccc(F)cc3)n2)c1OC,nt,0.36
O=C(CSc1nccn(-c2ccc(F)cc2)c1=O)NC1CCCCC1,nt,-1.5
Cc1cc(=O)n2nc(N3CCCC(C(=O)NC4CCCC(C)C4C)C3)sc2n1 (stereo not drawn),-1.2,1.6
COc1cccc(C2=NN3C(C2)c2cccc(OC)c2OC32CCCCC2)c1 (stereo not drawn),-2.4,nt
CSc1cccc(NC(=O)c2ccccc2F)c1,-1.7,nt
O=C(C1CCN(S(=O)(=O)c2cnc[nH]2)CC1)N1CC=C(c2ccccc2)CC1,-1.9,-0.95
CC1CCN(c2nc3ccccc3nc2SCC(=O)NC2CC2)CC1,0.15,-1.6
O=C(NCCCN1CCCC1=O)c1ccc(N2CCc3ccccc32)s1,nt,2.2
Clc1ccc(-c2ccnc3nncn23)cc1,-0.91,nt
CNc1ncnc2c1c(-c1ccccc1)cn2-c1cccc(C)c1,-2.1,1.2
Cc1cc(N=CN(C)C)c2ccccc2n1,-0.24,nt
CC(=O)N1c2ccccc2CC1C(=O)NCCN(C)C (stereo not drawn),nt,0.69
CCOC(=O)c1c(C)oc2nc(C)nc(NC(C)CCc3ccccc3)c12 (stereo not drawn),nt,1.4
Cc1ccc(S(=O)(=O)Nc2ccc3c(c2)oc(=O)n3C)cc1C,nt,-0.49
CCOC(=O)N1CCN(c2cc(NCCCC(=O)O)c3c4c(onc24)-c2ccccc2C3=O)CC1,-0.95,0.69
Fc1ccc2[nH]cc(CCCN3CCN(c4nc5cc(Cl)ccc5s4)CC3)c2c1,1.4,nt
COc1ccc(-c2nc3n(n2)C(c2ccc(Cl)cc2)C2=C(CC(C)(C)CC2=O)N3)cc1OC (stereo not drawn),-1.7,0.72
Cc1ccc(Cn2c(=O)c3cccnc3n(CC(=O)c3ccc(Br)cc3)c2=O)cc1,-0.66,0.85
CCOC(=O)c1noc2ncnc(N(CC)c3ccccc3)c12,nt,-0.54
CSc1ccc(CN2CCN(S(=O)(=O)c3ccc(C)cc3)CC2)cc1,-2,0.98

# (list continues)
SMILES,CDC25B-CDK2 inh,HIV TAR-Tat
Cc1cccc(S(=O)(=O)N2CCSC2c2ccc(Br)cc2)c1 (stereo not drawn),-1.7,3
CN(C)c1nc(-c2ccccc2)nc(-c2ccccc2)c1C#N,-2.7,nt
O=C1CC(C(=O)N2CCc3ccccc32)CN1c1cccc(-c2noc(C3CCC3)n2)c1 (stereo not drawn),nt,0.28
COc1cc(OC)c(Nc2nc(-c3cccc(OC)c3OC)no2)cc1Cl,nt,-0.16
Cn1c(=O)c2c(nc(NCCO)n2Cc2cccc3ccccc23)n(C)c1=O,0.19,1.3
O=C(NC1CC1)c1cccn2c(-c3ccccc3F)nnc12,nt,0.74
Cc1cc(Nc2cccc(F)c2)n2ncnc2n1,0.89,-0.51
O=c1c(NC2CCCC2)c(-c2ccc3c(c2)CCCC3)c1=O,nt,-0.58
CCOC(=O)c1c(C)oc2ccc(OCC(=O)O)cc12,-3.8,nt
O=C(COc1ccc(Cl)cc1)Nc1ccc(N2CCCS2(=O)=O)cc1,nt,0.55
COc1ccc(/C(O)=C2\C(=O)C(=O)N(CCN(C)C)C2c2ccc(C)cc2)cc1 (stereo not drawn),-0.82,0.42
COC(=O)c1cc2oc(C)cc2n1CC(=O)N(C)C1CCCCC1,-1.8,0.69
CCCCCn1c(CN2CCN(C)CC2)nc2c1c(=O)n(C)c(=O)n2C,1.7,1.4
Cc1ccc2nc(C)c(Cc3nnc(SCC(=O)Nc4ccccc4)n3C)c(=O)n2c1,-1.5,0.93
O=C(O)Cc1ccc(NC2(c3ccccc3)C(=O)c3ccccc3C2=O)cc1,nt,0.64
Cn1c(=O)c(=O)n(C)c2cc(S(=O)(=O)Nc3ccc(C(F)(F)F)cc3)ccc21,-0.73,nt
Fc1ccccc1C1CC(c2cccs2)Nc2nnnn21 (stereo not drawn),nt,1.2
COc1ccc(OC)c(S(=O)(=O)NCCc2csc3nc(-c4cccs4)nn23)c1,nt,-0.32
CC(C)c1ccc(-c2c(NCc3ccccc3)c(=O)c2=O)cc1,nt,1.9
CCN(c1ccccc1)S(=O)(=O)c1cc(-c2noc(C)n2)cs1,nt,1.3
Cc1ccc(C(=O)OC2=C(C(=O)c3ccccc3)N(C)S(=O)(=O)c3ccccc32)cc1,-1.7,nt
CCOC(=O)c1c(C)oc2nc(C)nc(Nc3ccc(N4CCC(C)CC4)cc3)c12,nt,-0.02
Cc1onc(-c2ccccc2)c1C(=O)Nc1ccc2[nH]ccc2c1,-1.5,nt
CC1c2[nH]c3ccccc3c2CCN1S(C)(=O)=O (stereo not drawn),-0.32,nt
Cc1cc2c(cc1S(=O)(=O)N1CCC(C(N)=O)(N3CCCCC3)CC1)OCC(=O)N2,nt,1.1
CCCCc1nnc(NC(=O)CSCc2cc(=O)n3ccsc3n2)s1,nt,-0.24
O=C(NC1CCCC1)C1CCCN(c2ncnc3c2sc2cccc(F)c23)C1 (stereo not drawn),-9.5,nt
